Source: PubChem BioAssay
Cruzain Triton: inhibitors of Trypanosoma cruzi cruzain with detergent. P25779. purified cruzain, Z-FR-AMC fluorescence, 0.01% Triton. Potency, µM, for the others: max response, negative = inhibition, most hits filed as inhibitors. actives 0.43% (n = 200,000); active means well fitted curve in the direction sought with a large enough effect; inconclusive means small, poorly fitted or top-dose-only effect, or another doubt; inactive means no such curve, though single readings can be large; an effect the other way counts as inactive or inconclusive;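 further: plate controls were neutral wells for no effect and buffer without enzyme for full effect; nearly all actives have a fitted effect of over 40% in size; top concentration of the series not given in the record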
Target sequence (P25779 123-467 limits assumed): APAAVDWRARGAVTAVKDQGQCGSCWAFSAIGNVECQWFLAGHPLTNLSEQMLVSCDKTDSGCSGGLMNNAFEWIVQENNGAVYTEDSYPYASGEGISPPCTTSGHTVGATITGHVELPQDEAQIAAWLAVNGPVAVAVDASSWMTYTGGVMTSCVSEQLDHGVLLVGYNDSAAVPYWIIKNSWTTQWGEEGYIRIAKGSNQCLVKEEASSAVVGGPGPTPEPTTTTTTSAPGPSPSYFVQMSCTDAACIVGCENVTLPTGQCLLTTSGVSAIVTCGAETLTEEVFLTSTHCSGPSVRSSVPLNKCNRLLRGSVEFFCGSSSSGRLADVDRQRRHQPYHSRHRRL
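In this qHTS format, compounds are incubated with 1.5 nM cruzain for 15 min at room temperature before 2 uM Z-FR-AMC is added. Release of AMC is followed at 360/450 nm, and progress is taken as the 60 s fluorescence difference.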
RE007 growth inh: less growth of the S. pombe RE007 Vpr strain. S. pombe RE007 Vpr strain, BacTiter-Glo ATP luminescence, 24 h; control for the full effect not named in the record. Potency, µM (titrated, usually from 92.2 µM), without a hit: at the top dose activity change, negative = less growth. actives 0.21% (n = 360,000). AID 651644; active = well fitted falling curve with a large enough effect; inconclusive = small, poorly fitted or top-dose-only effect; inactive = no such curve, though single readings can be large or run the other way;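 further: on the % scale 0 is the no-effect control and ±100 the full control effect; nearly all actives have a fitted effect of over 50% in size; the assay follows cell death caused by Vpr and the record does not say whether a fall means rescue or toxicity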
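Fission yeast strain RE007, carrying one chromosomally integrated HIV-1 vpr copy, was seeded at OD 0.01 in PMG+AL medium with 23 nL pinned compound. After 24 h at 30 °C and 99% humidity, viability was read by BacTiter-Glo luminescence.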
Lassa entry inh: inhibitors of Lassa virus binding or cell entry | AID 540256 | actives 1.2% (n = 300,000) | Lassa virus pseudotype entry inhibition, cell reporter; control for the full effect not named in the record | Potency, µM (series often up to 37.9 µM), for the others: top-dose activity change, negative = inhibition, actives largely listed as inhibitors; active means well fitted inhibition curve with a large enough effect; inconclusive means small, poorly fitted or top-dose-only effect, or effect the other way; inactive means flat fitted curve, though single readings scatter; tested in HEK293 cells; further: on the % scale 0 is the no-effect control and ±100 the full control effect; nearly all actives have a fitted effect of over 50% in size; luciferase read-out
NS1 inh: influenza NS1 inhibition. S. cerevisiae slowed by influenza A NS1, growth recovery by OD600. Potency, µM (top dose mostly 46.1 µM), for the others: top-dose activity, positive = more growth. actives 0.4% (n = 270,000). AID 2326; further: actives are rising curves; nearly all actives have a fitted effect of over 50% in size
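Growth recovery, yeast-based: influenza A NS1 expressed in S. cerevisiae causes slow growth, and suppressors are detected by OD600. The parent strain without NS1 is used as positive control.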
Marburg entry inh: Marburg virus entry inhibition; Marburg virus pseudotyped entry inhibition, cell reporter; control for the full effect not named in the record; about a third of the inactives were read at about 46 µM; Potency, µM (top dose mostly 37.8 µM), without a hit: at the top dose activity change, negative = inhibition, most hits filed as inhibitors; actives 1.8% (n = 300,000); active = well fitted inhibition curve with a large enough effect; inconclusive = small, poorly fitted or top-dose-only effect, or effect the other way; inactive = flat fitted curve, though single readings scatter; tested in HEK293 cells; about a fifth of its hits are not listed in these tables; further: on the % scale 0 is the no-effect control and ±100 the full control effect; luciferase read-out
SARS PLP yeast: SARS-CoV PLP inhibition in yeast; S. cerevisiae expressing SARS-CoV PLpro, growth rescue; control for the full effect not named in the record; Potency, µM (doses to about 32.9 µM), for the others: at the top dose activity, positive = growth rescue; actives 0.19% (n = 330,000); AID 485353; further: 0% is about no effect; nearly all actives have a fitted effect of over 55% in size; growth read by luminescence after 48 h
2A StopGo: lowers the luciferase signal of an FMDV 2A StopGo reporter | AID 1159524 | human cells with a luciferase reporter of 2A StopGo recoding; control for the full effect not named in the record | actives 1.2% (n = 410,000) | Potency, µM (top dose mostly 57.9 µM), without a hit: at the top dose signal change, negative = less light; active = well fitted falling curve with a large enough effect; inconclusive = small, poorly fitted or top-dose-only effect; inactive = no such curve, though single readings can be large or run the other way; tested in HEK293T cells; further: on the % scale 0 is the no-effect control and ±100 the full control effect; nearly all actives have a fitted effect of over 45% in size; luciferase light after 4 h
Cruzain noTriton: inhibitors of Trypanosoma cruzi cruzain without detergent | P25779 | purified cruzain, Z-FR-AMC fluorescence, no detergent | actives 2.3% (n = 200,000) | Potency, µM, inactives show max response, negative = inhibition, usual class: inhibitors; active means well fitted curve in the direction sought with a large enough effect; inconclusive means small, poorly fitted or top-dose-only effect, or another doubt; inactive means no such curve, though single readings can be large; an effect the other way counts as inactive or inconclusive;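 further: plate controls were enzyme without inhibitor for no effect and buffer without enzyme for full effect; nearly all actives have a fitted effect of over 40% in size; top concentration of the series not given in the record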
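Detergent-free condition (0.00005% Triton X-100) in acetate buffer pH 5.5 with DTT. 1.5 nM enzyme and compound were pre-mixed 15 min, then 2 uM Z-FR-AMC substrate added; reaction progress from fluorescence change between first and third reads (60 s).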
The depositor's hits bear a star; [ ] = another dose, or the depositor's remark. Unless noted, the call rests on the fitted dose curve; in most records, active means well fitted rising curve with a large enough effect; inconclusive means small, poorly fitted or top-dose-only effect; inactive means no such curve, though single readings can be large or run the other way. Potency means the concentration at half of the fitted maximal effect.

`NC(=O)c1ccc(N2CCNC(=O)C2)c([N+](=O)[O-])c1` gave RE007 growth inh 15%, NS1 inh 2%, Marburg entry inh 14%[46.1 µM], SARS PLP yeast -3% and 2A StopGo -13%.
c1ccc(C2CCCN(Cc3nc(CC4CC4)no3)CC2)cc1 (configuration not stated) was read as RE007 growth inh -9%, Lassa entry inh 11%, NS1 inh -1%, Marburg entry inh inconclusive, SARS PLP yeast -1% and 2A StopGo 0%.
Screening COc1cccc(C(=O)Nc2nc3c(s2)CCCC3)c1 returned Cruzain Triton -20%, Lassa entry inh 15%[46.1 µM], Marburg entry inh -7%[46.1 µM], 2A StopGo -30% and Cruzain noTriton -14%.
Screening CCN(CC)S(=O)(=O)c1ccc(N2CCOCC2)c(NC(=O)C(C)(C)C)c1 returned RE007 growth inh -6%, NS1 inh -66%, SARS PLP yeast 0% and 2A StopGo -4%.
`Cc1nn(Cc2ccccc2)c2c1C(c1cccnc1)C(C#N)=C(N)O2` (configuration not stated) gave Cruzain Triton 3.7%, RE007 growth inh -7%, Lassa entry inh 2%, NS1 inh -3%, Marburg entry inh -1%, SARS PLP yeast 7%, 2A StopGo -25% and Cruzain noTriton 4%.
`CC(=O)c1ccc(S(=O)(=O)N2CCN(C(=O)CSc3ccc(F)cc3)CC2)cc1` gave RE007 growth inh 0%, Lassa entry inh -11%, NS1 inh -12%, Marburg entry inh 6%[46.1 µM], SARS PLP yeast 1% and 2A StopGo 9%.
Screening COc1ccc(C(=O)Nc2nc(-c3nnn(-c4ccc(F)cc4F)c3C)ns2)cc1 returned Cruzain Triton 0.8%, Lassa entry inh inconclusive, 2A StopGo inconclusive and Cruzain noTriton -13%.
CCOC(=O)CSc1nnc(CNC(=O)c2ccc(S(=O)(=O)N3CCCC3)cc2)n1C was read as Cruzain Triton 4.5%, RE007 growth inh 8%, NS1 inh -3%, SARS PLP yeast 19%, 2A StopGo 8% and Cruzain noTriton 9%.
`COc1cc(C(=O)Nc2ccc3c(c2)OCCO3)c(-n2cnnn2)cc1OC` gave Cruzain Triton 4.5%, RE007 growth inh 10%, Lassa entry inh 7%, NS1 inh 3%, Marburg entry inh -1%, SARS PLP yeast -5%, 2A StopGo -17% and Cruzain noTriton -2%.
For COc1cccc(-c2cc(-c3cccnc3)c(C#N)c(N)n2)c1 the results were RE007 growth inh 12%, NS1 inh 2%, SARS PLP yeast 1% and 2A StopGo -11%.
Screening COc1cc(/C=N\NC(=O)OC(C)(C)C)ccc1OC(=O)c1ccco1 returned RE007 growth inh -6%, Lassa entry inh 4%, Marburg entry inh 15%[46.1 µM], SARS PLP yeast -2% and 2A StopGo 37%[activator].
Screening CC1(C)C2C(Cl)(Cl)C2(C)c2ccccc2N1C=O (configuration not stated) returned RE007 growth inh -12%, Lassa entry inh -13%, NS1 inh -5%, Marburg entry inh -3%[46.1 µM], SARS PLP yeast 0% and 2A StopGo -4%.
`CCCCNC(=O)c1cc(-c2ccc(OC)cc2)nc2n[nH]c(-c3cccc([N+](=O)[O-])c3)c12` gave Cruzain Triton 1.8%, Lassa entry inh -8%[46.1 µM], 2A StopGo -21% and Cruzain noTriton -2%.
`COc1cccc(OCC(=O)NNC(=O)c2cccs2)c1` gave Cruzain Triton 4.1%, RE007 growth inh 9%, Lassa entry inh 1%, NS1 inh 2%, Marburg entry inh -3%[46.1 µM], SARS PLP yeast -4%, 2A StopGo 13% and Cruzain noTriton -3%.
For COc1ccc(NCc2nc3ccccc3n2CCOc2ccccc2)cc1 the results were Cruzain Triton -6.4%, RE007 growth inh -8%, Lassa entry inh inconclusive, NS1 inh 6%, Marburg entry inh inconclusive, SARS PLP yeast -23%, 2A StopGo -24% and Cruzain noTriton 1%.
Screening O=C(O/N=C1/CCCc2occc21)c1ccccc1 returned Cruzain Triton -1.4%, RE007 growth inh -19%, Lassa entry inh 0%, NS1 inh -46%, Marburg entry inh -1%, SARS PLP yeast 5%, 2A StopGo 17% and Cruzain noTriton 6%.
For COc1ccc(-c2nc3cccc(C)n3c2NCc2ccco2)cc1OC the results were Cruzain Triton -10%, RE007 growth inh -24%, Lassa entry inh -28%, NS1 inh -30%, Marburg entry inh inconclusive, SARS PLP yeast 2%, 2A StopGo inconclusive and Cruzain noTriton -30%.
For Cc1cccc(C)c1OCC(=O)NCC1CCCO1 (configuration not stated) the results were RE007 growth inh -8%, Lassa entry inh 11%, NS1 inh 1%, SARS PLP yeast 0% and 2A StopGo 4%.
`N#CC1=C(N)C(C#N)(C#N)[C@H](c2ccsc2)[C@H]2COCC=C12` gave Cruzain Triton -22%, RE007 growth inh 3%, Lassa entry inh -3%, NS1 inh 5%, Marburg entry inh -21%, SARS PLP yeast 5%, 2A StopGo -14% and Cruzain noTriton 3%.
Cc1ccc(NC(=O)C2CCCN(S(=O)(=O)c3ccc(F)cc3)C2)cc1 (configuration not stated) was read as Cruzain Triton -3.4%, Marburg entry inh -13%[46.1 µM], 2A StopGo -30% and Cruzain noTriton 9%.
CN1Cc2sc(NC(=S)NC(=O)c3ccccc3)c(C#N)c2CC1(C)C was read as RE007 growth inh -10%, Lassa entry inh inconclusive, NS1 inh 2%, Marburg entry inh inconclusive, SARS PLP yeast -3% and 2A StopGo inconclusive.
CC(=O)N(C)c1nc(N)n(-c2ccccc2)n1 was read as RE007 growth inh 12%, NS1 inh 5%, SARS PLP yeast 0% and 2A StopGo 0%.
Screening O=C(NCC1CCCO1)Nc1ccccc1 (configuration not stated) returned Cruzain Triton 6.7%, RE007 growth inh -4%, Lassa entry inh -13%, NS1 inh 10%, Marburg entry inh 16%, SARS PLP yeast -9%, 2A StopGo 10% and Cruzain noTriton -9%.
`Cc1c(Br)c([N+](=O)[O-])nn1CC(=O)NCCc1ccc(Cl)cc1` gave RE007 growth inh 0%, NS1 inh 4%, SARS PLP yeast 1% and 2A StopGo -17%.
CCOC(=O)/C(=C\c1cccc(O)c1)c1nc2sc(C)c(C)c2c(=O)[nH]1 was read as Cruzain Triton -8.7%, RE007 growth inh -9%, Lassa entry inh inconclusive, NS1 inh 8%, Marburg entry inh inconclusive, SARS PLP yeast 17%, 2A StopGo 11µM* and Cruzain noTriton 2%.
Screening NS(=O)(=O)c1cccc(NC(=O)Nc2ccccc2)c1 returned RE007 growth inh -16%, Lassa entry inh 24%, NS1 inh -8%, Marburg entry inh 11%, SARS PLP yeast 1% and 2A StopGo 9%.
CCC1Nc2ccccc2-c2nnc(SC)nc2O1 (configuration not stated) was read as Cruzain Triton -4.3%, RE007 growth inh -11%, Lassa entry inh -1%, NS1 inh 2%, Marburg entry inh 3%, SARS PLP yeast 1%, 2A StopGo -19% and Cruzain noTriton -2%.
For CCOc1ccccc1NC(=O)CSc1cn(CC(=O)N2CCCCCC2)c2ccccc12 the results were Cruzain Triton -3.4%, Lassa entry inh 15%[46.1 µM], 2A StopGo -26% and Cruzain noTriton -5%.
CC(=O)n1cc([C@H]2C=C(C(=O)NCc3ccccc3)O[C@@H](OCCCCO)C2)c2ccccc21 was read as RE007 growth inh 2%, NS1 inh 7%, SARS PLP yeast -1% and 2A StopGo -11%.
For COCCNC(=O)C1CCN(S(=O)(=O)c2ccc3c(c2)OCCO3)CC1 the results were RE007 growth inh 4%, Lassa entry inh inconclusive, Marburg entry inh 5%, SARS PLP yeast -8% and 2A StopGo -21%.
CC(/C=N/NC(=O)c1ccc2nc(C)[nH]c2c1)=C\c1ccccc1 was read as Cruzain Triton -11%, RE007 growth inh -18%, Lassa entry inh 5%, NS1 inh -4%, Marburg entry inh 18%, SARS PLP yeast -4%, 2A StopGo 4% and Cruzain noTriton 7%.
For CCOC(=O)C(=NC(C)C)NNc1cc(Cl)ccc1Cl the results were Cruzain Triton -1.7%, RE007 growth inh -14%, Lassa entry inh 4%, NS1 inh 4%, Marburg entry inh 13%, SARS PLP yeast -57%, 2A StopGo -13% and Cruzain noTriton -4%.
Screening CC(C)(C)c1ccc(C(=O)NNc2ccc(F)cc2F)cc1 returned RE007 growth inh 41%, Lassa entry inh inconclusive, NS1 inh -35%, Marburg entry inh 5%, SARS PLP yeast -1% and 2A StopGo 5%.
CC(C)n1c(/N=C/c2ccccc2O)nc2ccccc21 was read as RE007 growth inh -11%, Lassa entry inh 14%, NS1 inh 0%, Marburg entry inh inconclusive, SARS PLP yeast 1% and 2A StopGo -2%.
COc1ccc(NC(=O)CSCC(=O)Nc2ccccc2C(=O)N2CCCCC2)cc1 was read as RE007 growth inh -2%, Lassa entry inh 4%, Marburg entry inh 3%, SARS PLP yeast 0% and 2A StopGo -4%.
For CC1=C(C(=O)Nc2ccccc2C)C(c2ccncc2)n2nc(SCc3ccccc3)nc2N1 (configuration not stated) the results were Cruzain Triton 0.4%, Lassa entry inh 0%[46.1 µM], Marburg entry inh -26%[46.1 µM], 2A StopGo -11% and Cruzain noTriton -16%.
COc1cc(OC)cc(C(=O)N[C@H](C(=O)OCC(=O)c2c[nH]c3ccccc23)C(C)C)c1 was read as RE007 growth inh 7%, Lassa entry inh -16%[46.1 µM], Marburg entry inh -23%[46.1 µM], SARS PLP yeast 3% and 2A StopGo 5%.

In the list so far, these contain a furan ring, fused or not:
Screening COc1cc(/C=N\NC(=O)OC(C)(C)C)ccc1OC(=O)c1ccco1 returned RE007 growth inh -6%, Lassa entry inh 4%, Marburg entry inh 15%[46.1 µM], SARS PLP yeast -2% and 2A StopGo 37%[activator].
Screening O=C(O/N=C1/CCCc2occc21)c1ccccc1 returned Cruzain Triton -1.4%, RE007 growth inh -19%, Lassa entry inh 0%, NS1 inh -46%, Marburg entry inh -1%, SARS PLP yeast 5%, 2A StopGo 17% and Cruzain noTriton 6%.
For COc1ccc(-c2nc3cccc(C)n3c2NCc2ccco2)cc1OC the results were Cruzain Triton -10%, RE007 growth inh -24%, Lassa entry inh -28%, NS1 inh -30%, Marburg entry inh inconclusive, SARS PLP yeast 2%, 2A StopGo inconclusive and Cruzain noTriton -30%.
